HIV Env fusion = inhibitors of HIV-1 Env-driven cell-cell fusion, primary screen, HeLa-JRFL effector, CEM21 target cells, luciferase. inhibition, % at 12.3 µM. 360,000 compounds, 1.1% hits;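 active means mean replicate inhibition score of at least 50 and every replicate individually at or above 50; inconclusive means only one of the two criteria met; inactive means mean below 50 and not all replicates reaching 50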;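 further: 0% = plate neutral controls and 100% = maraviroc near 300 nM; one replicate is shown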
Starred values were filed as active, the others as inactive; ? = inconclusive; [ ] = remark or other dose.

| entry | Molecule | HIV Env fusion |
| --- | --- | --- |
| 1 | C[C@@H]1CN([C@H](C)CO)C(=O)CCCn2nncc2CO[C@@H]1CN(C)C(=O)Nc1cccc(Oc2ccccn2)c1 | -9[16.7 µM] |
| 2 | COc1ccc(-c2ccccc2[C@@H]2[C@H](C#N)N(C(=O)C3CCCC3)[C@H]2CO)cc1 | -6[16.7 µM] |
| 3 | C[C@H](CO)N1C[C@H](C)[C@@H](CN(C)S(=O)(=O)c2cn(C)cn2)OCc2ccccc2-c2ccccc2C1=O | -9[16.7 µM] |
| 4 | Nc1nc2c(ncn2[C@@H]2O[C@H](C(=O)N[C@@H](Cc3ccccc3)C(=O)NCC3CCCCC3)[C@@H](O)[C@H]2O)c(=O)[nH]1 | -27 |
| 5 | O=C(C[C@H]1CC[C@H]2[C@@H](COC[C@H](O)CN2CCc2ccccc2)O1)NCCCN1CCOCC1 | -9[16.7 µM] |
| 6 | Cc1cc(N2CCN(CC(C)(C)O)C[C@H]2C)ccc1N1CCN(Cc2ccccc2)[C@H](C)C1 | 4 |
| 7 | CO[C@H]1CN(C)C(=O)c2cc(NS(=O)(=O)CC(F)(F)F)ccc2OC[C@@H](C)N(Cc2nccs2)C[C@@H]1C | -5[16.7 µM] |
| 8 | O=C(O)C[C@H]1CC[C@@H](NC(=O)c2ccncc2)[C@@H](CO)O1 | -21[16.7 µM] |
| 9 | CCNC(=O)c1cc2c(c(-c3cccc(-c4cccc(C(=O)N(C)C)c4)c3)n1)[C@@H](CCO)N([S@](=O)C(C)(C)C)C2 | -9[16.7 µM] |
| 10 | C[C@H]1CN([C@@H](C)CO)C(=O)c2cc(C#CC(C)(C)O)cnc2O[C@@H]1CN(C)Cc1cccc(F)c1 | 13[16.7 µM] |
| 11 | CO[C@@H]1CN(C)C(=O)c2cc(NC(=O)c3ccccc3)ccc2OC[C@@H](C)N(CC2CC2)C[C@H]1C | 17[16.7 µM] |
| 12 | C[C@@H]1CCCCO[C@@H](CN(C)C(=O)CCC(F)(F)F)[C@H](C)CN([C@H](C)CO)C(=O)c2cc(N(C)C)ccc2O1 | -1[16.7 µM] |
| 13 | CO[C@@H]1CC[C@@H]2CCOc3c(C#N)cccc3C(=O)N(C)[C@@H](C)C(=O)N(C)C[C@H]1O2 | 19[16.7 µM] |
| 14 | C[C@@H]1CN([C@@H](C)CO)C(=O)c2cccc(NC(=O)c3ccncc3)c2O[C@@H]1CN(C)CC1CC1 | 13[16.7 µM] |
| 15 | CNC[C@@H]1Oc2cc(C#CCOC)ccc2S(=O)(=O)N([C@H](C)CO)C[C@H]1C | -25[16.7 µM] |
| 16 | S=C(SCc1nc(-c2ccc(Cl)cc2)no1)N1CCSCC1 | -59 |
| 17 | COc1ccc(OC(=O)N(C)C[C@H]2OCc3cn(nn3)CCCC(=O)N([C@H](C)CO)C[C@H]2C)cc1 | 0[16.7 µM] |
| 18 | C[C@@H]1CN([C@@H](C)CO)S(=O)(=O)c2ccc(C3=CCCC3)cc2O[C@H]1CN(C)C(=O)c1ccc(F)cc1 | 5[16.7 µM] |
| 19 | O=C(NCc1ccccc1)[C@@H]1CCCN1C(=O)[C@H]1CCCN1C(=O)c1ccccc1 | -8 |
| 20 | COc1ccc(OC)c(S(=O)(=O)CC(=O)c2cc3ccccc3oc2=O)c1 | 17 |

(more compounds)
| entry | Molecule | HIV Env fusion |
| --- | --- | --- |
| 21 | COCC(=O)N1C[C@@H](C)[C@@H](OC)CN(C)C(=O)c2cc(NC(=O)c3cc(C)on3)ccc2OC[C@@H]1C | 1[16.7 µM] |
| 22 | C[C@H]1[C@H](c2ccccc2)Oc2cccc(NCCc3ccccc3)c2S(=O)(=O)N1Cc1cccc(F)c1 | ? |
| 23 | COC(=O)C1=C(C)N(C)C(=NCc2ccc(C(F)(F)F)cc2)NC1c1ccc(F)cc1 (configuration not stated) | 2 |
| 24 | CC(C)NC(=O)Nc1ccc2c(c1)C(=O)N([C@H](C)CO)C[C@H](C)[C@@H](CN(C)C(=O)c1ccncc1)OCCCC[C@@H](C)O2 | 10[16.7 µM] |
| 25 | CCCNC(=O)C[C@@H]1C[C@@H]2c3cc(NC(=O)NC4CCCCC4)ccc3O[C@@H]2[C@H](CO)O1 | -3[16.7 µM] |
| 26 | COc1cccc(C(=O)Nc2ccc3c(c2)C(=O)N(C)C[C@@H](OC)[C@@H](C)CN[C@H](C)CO3)c1 | 9[16.7 µM] |
| 27 | CO[C@H]1CN(C)C(=O)c2ccc(NC(=O)Nc3cc(F)ccc3F)cc2OC[C@H](C)N(C(=O)c2cnccn2)C[C@H]1C | -2[16.7 µM] |
| 28 | Cc1ccccc1C(=O)N[C@H](C(=O)N1CCC[C@H]1C(=O)NC1CCCC1)C1CCCCC1 | -5 |
| 29 | CCOC(=O)C1CSCCS(=O)(=O)N1Cc1ccccc1F (configuration not stated) | -33 |
| 30 | C[C@@H]1CN([C@H](C)CO)C(=O)c2cccc(NC(=O)Nc3ccc(F)cc3)c2O[C@H]1CN(C)S(=O)(=O)c1cn(C)cn1 | 19[16.7 µM] |
| 31 | C/C=C/c1ccc2c(c1)O[C@H](CN(C)C(=O)Cc1cccnc1)[C@H](C)CN([C@H](C)CO)S2(=O)=O | 32[16.7 µM] |
| 32 | C[C@H]1CN([C@@H](C)CO)C(=O)Cc2cc(NS(=O)(=O)c3ccc(F)cc3)ccc2O[C@@H]1CN(C)C(=O)Nc1ccc2c(c1)OCO2 | 11[16.7 µM] |
| 33 | CCCN(C)C[C@H]1Oc2cc(C3=CCCCC3)ccc2S(=O)(=O)N([C@H](C)CO)C[C@@H]1C | -17[16.7 µM] |
| 34 | Cc1ccc(Cl)cc1NC(=O)N(C)CCOC(=O)Nc1cccc(Cl)c1 | 9 |
| 35 | Cc1ccccc1-c1cnc2c(c1)C(=O)N([C@H](C)CO)C[C@H](C)[C@H](CN(C)C(=O)CC1CC1)O2 | 16[16.7 µM] |
| 36 | CC=Cc1ccc2n(c1=O)C[C@H]1[C@H](CO)[C@@H](C(=O)NCc3ccc(F)cc3)[C@@H]2N1CCC (mixture of isomers) | -18[16.7 µM] |
| 37 | C[C@H](CO)N1C[C@H](C)[C@@H](CN(C)Cc2ccc(C(=O)O)cc2)Oc2ccc(NS(=O)(=O)c3cccs3)cc2CC1=O | 16[16.7 µM] |
| 38 | CC=Cc1ccc2n(c1=O)C[C@@H]1[C@@H](CO)[C@H](C(=O)N[C@H](C)c3ccccc3)N(C(=O)c3cnccn3)[C@H]21 (mixture of isomers) | -2[16.7 µM] |
| 39 | CN(C)c1ccc2c(c1)[C@@H]1C[C@H](CC(=O)NCCN3CCCCC3)O[C@H](CO)[C@@H]1O2 | -7[16.7 µM] |
| 40 | CCCC(=O)Nc1ccc2c(c1)OC[C@H](C)N(Cc1ccc(F)cc1)C[C@H](C)[C@@H](OC)CN(C)C2=O | 26[16.7 µM] |

The listing continues:
| entry | Molecule | HIV Env fusion |
| --- | --- | --- |
| 41 | CCOC(=O)OC[C@@H]1[C@@H]2NC(=O)N(C)[C@@]1(CO)Oc1ccccc12 | -12[16.7 µM] |
| 42 | CC=Cc1ccc2n(c1=O)C[C@@H]1[C@@H](CO)[C@H](C(=O)NCC(F)(F)F)N(C(=O)c3cccnc3)[C@H]21 (mixture of isomers) | -2[16.7 µM] |
| 43 | C[C@@H]1CN([C@@H](C)CO)C(=O)c2c(c3ccccc3n2C)-c2ccccc2CO[C@@H]1CN(C)C(=O)[C@@H]1CCCN1C | -22[16.7 µM] |
| 44 | C[C@@H]1CCCCO[C@H](CN(C)CC2CC2)[C@H](C)CN([C@@H](C)CO)C(=O)c2cc(NS(=O)(=O)c3ccccc3)ccc2O1 | -6[16.7 µM] |
| 45 | CC(C)NC(=O)Nc1ccc2c(c1)C(=O)N([C@H](C)CO)C[C@@H](C)[C@H](CN(C)C)O2 | 13[16.7 µM] |
| 46 | C[C@H](C(=O)N(C)C[C@H]1OCc2ccccc2-c2ccccc2C(=O)N([C@H](C)CO)C[C@H]1C)c1ccccc1 | 23[16.7 µM] |
| 47 | COC(=O)C[C@H]1CC[C@@H]2[C@@H](COc3ccc(NC(=O)Nc4cc(C)cc(C)c4)cc3C(=O)N2C)O1 | 12[16.7 µM] |
| 48 | CN1C(=O)CN2CCc3ccccc3C2c2cc(Cl)ccc21 (configuration not stated) | 29 |
| 49 | CO[C@H]1CN(C)C(=O)c2cc(NC(=O)Nc3ccccc3F)ccc2OC[C@H](C)N(C(C)=O)C[C@H]1C | 13[16.7 µM] |
| 50 | COC(=O)c1cc2c(c3c4cc(OC)ccc4n(S(=O)(=O)c4ccc(F)cc4)c13)C(=O)N(C)C2 | 18 |
| 51 | COc1cccc(CN2CC3(C2)CN(C(=O)Nc2ccc(F)cc2)[C@H](CO)c2c3c3ccc(OC)cc3n2C)c1 | -24[16.7 µM] |
| 52 | C[C@@H]1CCCCO[C@@H](CN(C)C)[C@H](C)CN([C@@H](C)CO)C(=O)c2cc(NC(=O)C3CCCCC3)ccc2O1 | 4[16.7 µM] |
| 53 | CC(C)C[C@H]1COc2c(Cl)cccc2S(=O)(=O)N1Cc1ccc(F)cc1F | 16 |
| 54 | C[C@H](CO)N1C[C@H](C)[C@H](CN(C)S(=O)(=O)c2ccc(F)cc2)Oc2ncc(C#Cc3ccccc3)cc2C1=O | 25[16.7 µM] |
| 55 | Cc1cc2c(nc1C)CCCN2S(=O)(=O)c1ccccc1 | -6 |
| 56 | C[C@H]1CN([C@@H](C)CO)C(=O)c2ccccc2-c2ccccc2CO[C@@H]1CN(C)Cc1ccncc1 | 11[16.7 µM] |
| 57 | COc1ccc(NC(=O)Nc2ccc3c(c2)CC(=O)N([C@@H](C)CO)C[C@@H](C)[C@H](CN(C)S(=O)(=O)c2ccccc2)O3)cc1 | 2[16.7 µM] |
| 58 | C[C@@H]1CN([C@@H](C)CO)C(=O)CCCn2cc(nn2)CO[C@@H]1CN(C)Cc1ccc(Oc2ccccc2)cc1 | -5[16.7 µM] |
| 59 | CN1C(=O)c2cc(NC(=O)Nc3ccccc3F)ccc2OC[C@@H]2O[C@H](CC(=O)NCCc3ccncc3)CC[C@H]21 | 21[16.7 µM] |
| 60 | O=C(Cc1c[nH]c2ccccc12)Nc1ccc(Nc2cccnc2)c(-c2ccc(Cl)c(Cl)c2)c1 | -34 |

Next structures:
| entry | Molecule | HIV Env fusion |
| --- | --- | --- |
| 61 | C[C@H](CO)N1C[C@H](C)[C@H](CN(C)Cc2ccc(O)cc2)OCc2cnnn2CCCC1=O | -34[16.7 µM] |
| 62 | Cc1ccc(S(=O)(=O)Nc2ccc3c(c2)C(=O)N([C@H](C)CO)C[C@@H](C)[C@H](CN(C)Cc2ccc(C(F)(F)F)cc2)O3)cc1 | -4[16.7 µM] |
| 63 | C[C@H](CO)N1C[C@H](C)[C@H](CN(C)C(=O)Cc2ccncc2)Oc2ncc(C#C[C@@H](C)O)cc2C1=O | -7[16.7 µM] |
| 64 | C[C@@H]1CN([C@H](C)CO)C(=O)Cc2cc(NS(C)(=O)=O)ccc2O[C@H]1CN(C)Cc1ccc(Cl)c(Cl)c1 | 9[16.7 µM] |
| 65 | CCC(=O)N1C[C@H](C)[C@@H](OC)CN(C)C(=O)c2cc(NC(=O)CC(F)(F)F)ccc2OC[C@H]1C | 9[16.7 µM] |
| 66 | O=C(Nc1ccc2c(c1)[C@H]1C[C@@H](CC(=O)N3CCc4ccccc4C3)O[C@@H](CO)[C@H]1O2)c1cccnc1 | -7[16.7 µM] |
| 67 | C[C@@H]1CN([C@@H](C)CO)S(=O)(=O)c2ccc(C3=CCCCC3)cc2O[C@@H]1CN(C)CC1CC1 | 8[16.7 µM] |
| 68 | COc1cccc(NC(=O)N2C[C@@H](O)COC[C@@H]3O[C@H](CC(=O)NC4Cc5ccccc5C4)CC[C@H]32)c1 | 13[16.7 µM] |
| 69 | C[C@@H]1CN([C@@H](C)CO)C(=O)c2ccccc2-c2ccccc2CO[C@H]1CN(C)C(=O)[C@H]1CCCN1C | 14[16.7 µM] |
| 70 | CCCN1[C@@H]2c3ccc(-c4cncnc4)c(=O)n3C[C@@H]2[C@@H](CO)[C@@H]1C(=O)OC | 4[16.7 µM] |
| 71 | C[C@H](CO)N1C[C@H](C)[C@@H](CN(C)C(=O)C2CC2)Oc2ncc(C3=CCCC3)cc2C1=O | 8[16.7 µM] |
| 72 | COC(=O)/C(=C\Nc1ccc(Oc2ccccc2OC(C)C)nc1)NC(=O)c1ccccc1 | -2[16.7 µM] |
| 73 | CC1CN(C(=O)c2ccccc2)CCC1=NO (configuration not stated) | -10 |
| 74 | C[C@H]1CN([C@@H](C)CO)C(=O)c2ccccc2-c2ccccc2CO[C@@H]1CN(C)C(=O)[C@@H]1CCCN1C | -20[16.7 µM] |
| 75 | COc1ccccc1S(=O)(=O)N(C)C[C@@H]1OCc2ccccc2-c2ccccc2C(=O)N([C@@H](C)CO)C[C@H]1C | -14[16.7 µM] |
| 76 | C[C@H]1CN([C@@H](C)CO)S(=O)(=O)c2ccc(-c3ccccc3)cc2O[C@H]1CN(C)C(=O)c1ccc2c(c1)OCO2 | 1[16.7 µM] |
| 77 | CC(C)(C)[C@H]1C=C(C(=O)N2CCCCCCC2)O[C@@H](OCc2ccc(CO)cc2)C1 | 35[16.7 µM] |
| 78 | Nc1[nH]c(C(=O)c2ccc(Br)cc2)c(-c2ccccc2Cl)c1C(=O)NCCc1c[nH]c2ccccc12 | 7 |
| 79 | O=C(CSC1CCc2ccccc21)NN=Cc1ccco1 (configuration not stated) | -8 |
| 80 | C[C@H](NC(=O)N(C)C[C@H]1OCc2ccccc2-c2ccccc2C(=O)N([C@@H](C)CO)C[C@@H]1C)c1ccccc1 | 50[16.7 µM] |

Screens (PubChem BioAssay)

These rows are one share of the data (hit frequency here may not be typical).
